Assay outcomes as filed in PubChem.
VDR inh = Inhibitors of the vitamin D receptor (VDR): qHTS; Vitamin D3 receptor (Homo sapiens), P11473; VDR-SRC2-3 peptide fluorescence polarization, 2 h; Potency, µM, inactives show max response, negative = inhibition, most hits filed as inhibitors; actives 0.93% (n = 400,000); AID 504847, 2011; active = well fitted inhibition curve with a large enough effect; inconclusive = small, poorly fitted or top-dose-only effect, or another doubt; inactive = no such curve, though single readings can be large or run the other way; note: series mostly up to about 120 µM
Target sequence (P11473 whole entry, looked up): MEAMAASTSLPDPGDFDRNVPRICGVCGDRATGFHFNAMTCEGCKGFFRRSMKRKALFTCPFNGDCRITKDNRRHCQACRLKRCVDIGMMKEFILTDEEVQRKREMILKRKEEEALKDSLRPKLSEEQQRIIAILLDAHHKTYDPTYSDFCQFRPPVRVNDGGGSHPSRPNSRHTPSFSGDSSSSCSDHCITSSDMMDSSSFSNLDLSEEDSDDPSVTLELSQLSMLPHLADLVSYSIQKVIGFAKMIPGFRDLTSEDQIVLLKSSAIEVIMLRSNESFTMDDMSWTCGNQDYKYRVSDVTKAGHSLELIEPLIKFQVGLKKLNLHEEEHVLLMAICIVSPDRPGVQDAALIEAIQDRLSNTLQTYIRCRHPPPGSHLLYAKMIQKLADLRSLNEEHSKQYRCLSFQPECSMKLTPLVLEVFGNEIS
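Signal is fluorescence polarization, reporting how far test compounds block the interaction of VDR with the SRC2-3 coregulator peptide after a 2 h room-temperature incubation.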
* = called active by the depositor; ? = inconclusive. % is set by controls: 0 for no effect and ±100 for the full control effect; potency is the fitted concentration of half-maximal effect.

VDR inh	Compound
-7%	C#Cc1ccc2c(c1)COc1c3ccccc3nn1-2
-1%	COCC(=O)N1CCC[C@@]2(CCN(Cc3ccccc3)C2)C1
-2%	CCC(Cc1ccccc1)NC(=O)C1CCN(c2nn3c(=O)cc(C)nc3s2)CC1 (configuration not stated)
-13%	COc1ccc(N(C(=O)c2ccncc2)S(=O)(=O)c2ccc(Cl)cc2)cc1
9%	CCc1ccc(C(=O)c2cn(CC(=O)Nc3cc(OC)ccc3OC)c3nc(C)ccc3c2=O)cc1
1%	Cc1cc(C)cc(NC(=O)COc2coc(CN3CCc4ccccc43)cc2=O)c1
-6%	CC(=O)N1CCN(Cc2nc3scc(-c4ccccc4)c3c(=O)[nH]2)CC1
-25%	COc1ccc(N(CC(=O)NC(C)(C)C)C(=O)CCC(=O)Nc2nccs2)c(OC)c1
6%	Cc1ccc2cc(C(c3nnnn3C3CCCC3)N3CCN(c4ccc(F)cc4)CC3)c(=O)[nH]c2c1 (configuration not stated)
4%	NC(=O)C1CCN(c2oc(/C=C/c3ccccc3)nc2S(=O)(=O)c2ccccc2)CC1
-13%	COc1cc2c(cc1NC(=O)C(C)Oc1ccccc1)oc1ccccc12 (configuration not stated)
2%	CCCn1c(=O)c2ccccc2n2c(=S)[nH]nc12
17%	COc1ccccc1-n1c(SCC(=O)NC(C)(C)C)nnc1-c1ccco1
-9%	O=C(O)CC1C(=O)NCCN1CCCc1ccccc1 (configuration not stated)
2%	O=c1c2sc3ccccc3c2n(Cc2cccc(C(F)(F)F)c2)c(=O)n1-c1ccccc1
-23%	O=C1CCC([N+](=O)[O-])C(c2ccc3c(c2)OCO3)N1 (configuration not stated)
-6%	Cc1cc(C(=O)NN=Cc2ccc(OC(=O)c3ccco3)cc2)c(C)o1
-8%	Cc1ccccc1OCC(=O)N/N=C/c1ccc([N+](=O)[O-])o1
3%	CN(C(=O)COC(=O)C(C)(C)Oc1ccc(Cl)cc1)c1c(N)n(Cc2ccccc2)c(=O)[nH]c1=O
11%	Cc1cc(Br)ccc1OCC(=O)NNC(=O)C(=O)Nc1ccccc1
-8%	CCO[C@H]1OC(C(=O)Nc2ccccc2)=C[C@@H](c2ccc(C(F)(F)F)cc2)[C@@H]1CCCO
-7%	Cc1nc2nc[nH]c2cc1Br
11%	COc1ccc(Cl)cc1S(=O)(=O)N1CCC(C(=O)NC2CCCC2)CC1
-2%	C[C@@H]1CN([C@@H](C)CO)C(=O)c2cccc(NS(C)(=O)=O)c2O[C@H]1CN(C)CC1CCCCC1
-5%	COc1ccc(-c2nc(C)c(CCNS(=O)(=O)c3cc(Cl)ccc3Cl)s2)cc1
-7%	Cc1cc(-n2c(C)cc(C(=O)CSc3[nH]c(=O)cc(C(F)(F)F)c3C#N)c2C)no1
-13%	Cc1cccc2nc(-c3ccc(N(C)C)cc3)c(Nc3ccc4c(c3)OCO4)n12
10%	Cc1ccc(NS(=O)(=O)c2ccc(OCC(=O)Nc3cccc([N+](=O)[O-])c3)c(C)c2)cc1
-11%	CC(CNC(=O)c1ccc(NC2=NC3CS(=O)(=O)CC3S2)cc1)c1ccccc1 (configuration not stated)
-28%	CN1CCC(N(C)C(=S)NC(=O)c2cc(-c3cccc(Br)c3)nc3ccccc23)CC1
-9%	COc1ccc(OCC(=O)N/N=C(\C)CC(=O)Nc2ccc(OC)cc2[N+](=O)[O-])cc1
11%	O=C(CCN1C(=O)/C(=C/c2ccccc2Cl)SC1=S)NNC(=O)c1ccccc1O
-2%	CCCCCC(=O)Nc1ncc2c(n1)CC(c1cccs1)CC2=O (configuration not stated)
13%	COc1ccc(S(N)(=O)=O)cc1C(=O)NC1CCCc2ccccc21 (configuration not stated)
2%	CCCNC(=O)C(Cc1ccccc1)NS(=O)(=O)c1ccc2c(c1)CCC(=O)N2 (configuration not stated)
0%	CCOC(=O)c1ccc(NC(=O)CCCn2c(=O)c3cccn3c3ccccc32)cc1
11%	CC1(C)CC(=O)c2cn3nc(C(F)(F)F)nc3nc2C1
-5%	COc1cc2[nH]c(=O)c(C(=O)NCCCN3CCCCC3)c(O)c2cc1OC
-15%	COc1ccc(C)cc1NC(=O)C(c1ccccc1)N1CCN(CC(=O)NC2CC2)CC1 (configuration not stated)
-28%	COc1ccc(NC(=O)c2ccc(C#N)cc2)cc1NS(=O)(=O)c1ccc(F)cc1
-1%	CCOc1ccc(NC(=O)CCN2CCN(C)CC2)cc1
-5%	Cc1ccc(S(=O)(=O)NN=Cc2ccc(N3CCOCC3)cc2)cc1[N+](=O)[O-]
-9%	CCOc1ccc(N2C(=O)CC(N3CCOCC3)C2=O)cc1 (configuration not stated)
-4%	Clc1ccc(CCNc2nc3ccccc3n3nnnc23)cc1
-7%	Cc1ccc(NC(=O)c2cccnc2)cc1S(=O)(=O)N(C)C
1%	Cc1ccc(-n2c(SCC(=O)N/N=C/c3ccccc3OCC(=O)O)nc3ccccc3c2=O)cc1
-17%	Oc1ccccc1Cc1c(O)ccc2ccccc12
14%	COc1ccc(OC)c(N(CC(=O)NCC2CCCO2)S(=O)(=O)c2ccccc2)c1 (configuration not stated)
-16%	COc1ccc(-n2nnnc2SCC(=O)N2CCCC2=O)cc1
-6%	CCc1cc2c(-c3ccccc3)cc(=O)oc2c(CN2CCOCC2)c1O
8%	NS(=O)(=O)c1ccc(CCNCc2cc(Br)ccc2OCc2ccccc2)cc1
10%	COc1ccc(N(CC(=O)Nc2cc(C)ccc2C)S(=O)(=O)c2c(C)noc2C)cc1
2%	COc1ccc(S(=O)(=O)NCC(c2cccs2)S(=O)(=O)c2ccc(C)cc2)cc1F (configuration not stated)
8%	CCOc1cc(CNCC(C)C)c(Cl)cc1OCC(=O)Nc1ccccc1
-8%	Cc1c(Cl)cnc(NC(=O)COC(=O)CCc2nc3ccccc3s2)c1Cl
-3%	Cc1ccc(OCC(=O)N2CCN(C(=O)c3cccnc3)CC2)cc1
12%	Cc1ccc(S(=O)(=O)c2nc(S(C)(=O)=O)sc2N(C)Cc2ccccc2)cc1
-14%	CCOc1cc(C(=O)Nc2ccc([N+](=O)[O-])cn2)cc(OCC)c1OCC
0%	Cc1ccc(S(=O)(=O)c2nc(-c3ccco3)oc2SCC(=O)NCC2CCCO2)cc1 (configuration not stated)
-9%	COc1ccccc1CNC(=O)[C@H](C)NC(=O)C1CCN(C(=O)[C@@H](N)Cc2ccccc2)CC1

Seven entries out of the list, sorted by heavy-atom count, rising.
VDR inh	Compound
-17%	Oc1ccccc1Cc1c(O)ccc2ccccc12
-1%	CCOc1ccc(NC(=O)CCN2CCN(C)CC2)cc1
-9%	CCOc1ccc(N2C(=O)CC(N3CCOCC3)C2=O)cc1 (configuration not stated)
-2%	CCCCCC(=O)Nc1ncc2c(n1)CC(c1cccs1)CC2=O (configuration not stated)
-14%	CCOc1cc(C(=O)Nc2ccc([N+](=O)[O-])cn2)cc(OCC)c1OCC
2%	CCCNC(=O)C(Cc1ccccc1)NS(=O)(=O)c1ccc2c(c1)CCC(=O)N2 (configuration not stated)
11%	O=C(CCN1C(=O)/C(=C/c2ccccc2Cl)SC1=S)NNC(=O)c1ccccc1O

4 records picked at random from those above:
VDR inh	Compound
-9%	CCOc1ccc(N2C(=O)CC(N3CCOCC3)C2=O)cc1 (configuration not stated)
-5%	COc1cc2[nH]c(=O)c(C(=O)NCCCN3CCCCC3)c(O)c2cc1OC
1%	Cc1ccc(-n2c(SCC(=O)N/N=C/c3ccccc3OCC(=O)O)nc3ccccc3c2=O)cc1
-9%	COc1ccc(OCC(=O)N/N=C(\C)CC(=O)Nc2ccc(OC)cc2[N+](=O)[O-])cc1

More records follow:
VDR inh	Compound
-14%	COc1ccc(/C=N\NC(=O)c2ccc(F)cc2)cc1COc1ccccc1C(N)=O
10%	Nc1c(-c2nc(-c3ccc4c(c3)OCO4)cs2)c2ccccn2c1C(=O)c1ccc(Cl)cc1
-7%	N/C(COc1ccccc1)=N\NC(=O)c1cccnc1Oc1ccccc1
-12%	Cc1cc(C(F)(F)F)nn1Cc1n[nH]c(=S)n1Cc1ccccc1
-1%	CCOC(=O)c1cnc2cc(-c3ccc(C)cc3)nn2c1-c1ccccc1
-2%	COCCCNC(=O)C(=O)Nc1c2c(nn1-c1cccc(Cl)c1)CSC2
-9%	C/C(=N\NC(=O)c1nnn(-c2nonc2N)c1-c1ccc2c(c1)OCO2)c1ccccc1
21%	O=C(Nc1ccccc1C(=O)O)c1cc(S(=O)(=O)Nc2ccccc2)ccc1Cl
5%	O=C(N/N=C\c1ccc(F)cc1)c1ccc(F)cc1
18%	NS(=O)(=O)c1ccc(CCNC(=O)C2CCCCC2)cc1
4%	COC(=O)c1ccc(CNC(=O)c2ccc3c(c2)NC(=O)CS3)cc1
-27%	COc1cccc(CCNC(=O)c2cc(COc3c(F)cccc3F)on2)c1
-12%	COC(=O)c1cc(NC(=O)CCc2c(C)nc3c4c(C)cc(C)nc4nn3c2C)cc(C(=O)OC)c1
-3%	COc1ccc(C(=O)NCCS(=O)(=O)N2CCc3ccccc3C2)cc1OC
-17%	Cc1ccc(N2C(=O)c3ccccc3C2C(=O)c2ccc(O)cc2O)cc1 (configuration not stated)
18%	Cc1ccc(C)c(S(=O)(=O)N2CCCOC2CNC(=O)C(=O)NCc2ccncc2)c1 (configuration not stated)
5%	CCOC(=O)CC1C(=O)NCCN1S(=O)(=O)c1ccccc1 (configuration not stated)
-9%	N#Cc1ccc(C(=O)NN2C(=O)NC3(CCCCC3)C2=O)cc1
-3%	Cc1cc(C)cc(N(C(=O)Cn2nnc3ccccc32)C(C(=O)NCc2ccco2)c2ccncc2)c1 (configuration not stated)
-5%	O=C(Nc1ccnn1C1CCN(C(=O)CCc2ccc(F)cc2)CC1)C1CCOC1 (configuration not stated)
-17%	COc1ccccc1C(=O)NCCc1nc2ccccc2n1C
-22%	O=C(COc1ccccc1[N+](=O)[O-])N1CCCc2ccccc21
-5%	O=C(CCC(=O)c1cccs1)NCc1ccc(F)cc1
16%	O=C(NN1CCN(Cc2ccccc2Cl)CC1)c1ccc(Cl)cc1
-12%	COc1cccc(C(=O)OCC(=O)NCCC2=CCCCC2)c1
8%	CCc1ccc(NS(=O)(=O)c2cccc3nonc23)cc1
-3%	CC(C)OP(=O)(c1ccc(N(C)C)cc1)C(O)c1ccc(C(C)C)cc1 (configuration not stated)
0%	CN1C(=O)c2ccccc2OC1(C)Cc1ccccc1 (configuration not stated)
-11%	CCCCOc1ccc(C(=O)NCC(=O)N2CC(C)OC(C)C2)cc1 (configuration not stated)
-4%	Cc1cc(N)c2cc(NC(=O)Nc3ccc4nc(C)cc(N)c4c3)ccc2n1

Entries above that have bromine:
VDR inh	Compound
11%	Cc1cc(Br)ccc1OCC(=O)NNC(=O)C(=O)Nc1ccccc1
-7%	Cc1nc2nc[nH]c2cc1Br
-28%	CN1CCC(N(C)C(=S)NC(=O)c2cc(-c3cccc(Br)c3)nc3ccccc23)CC1
8%	NS(=O)(=O)c1ccc(CCNCc2cc(Br)ccc2OCc2ccccc2)cc1

Remaining list, next part.
VDR inh	Compound
22%	CCn1c(SCC(=O)NNC(=O)c2ccc(C)cc2)nnc1C(C)C
-2%	Cc1noc(C)c1S(=O)(=O)Nc1ccc(C#N)cc1
-11%	O=C(O)C1CCC(CNS(=O)(=O)c2ccc(Br)cc2)CC1 (configuration not stated)
5%	NC(=O)C1(Nc2ccc(-c3ccc(Cl)cc3)cc2)CCCC1
5%	Cc1cccc(N(C)C(=O)CCS(=O)(=O)c2ccc3c(c2)oc(=O)n3C)c1
-1%	CN(C)c1cccc(NC(=O)C2(C)CC2(Cl)Cl)c1 (configuration not stated)
-3%	Clc1c(-c2ccccc2)nnn1-c1ccccc1
13%	COC(=O)CSc1nc(C)cc(C)c1C#N
2%	CC1(C(=O)NC(=S)N(CCC#N)c2ccccc2)CC1(Cl)Cl (configuration not stated)
?	CN(C)c1ccc(N/C=C/C(=O)c2ccc(F)cc2)cc1
7%	Cc1c(C#N)c2ncnc(N)c2n1-c1ccccc1
-10%	O=C(/C=N/O)Nc1cccnc1
-8%	COc1ccc(CC2C(=O)OC(C)(C)OC2=O)cc1
-3%	O=C(NC1CCCCCC1)c1ccc2c(c1)sc1nc(-c3ccc(F)cc3)cn12
7%	COc1cc(C(=O)Nc2nonc2-c2ccc(Cl)cc2)cc(OC)c1OC
-16%	O=C(NN1C(=O)CSC1=S)c1cccnc1
10%	O=C(CSc1nc(-c2ccccc2)cc(=O)[nH]1)Nc1ccc(Br)cc1
8%	O=C(NCc1ccc(Cl)cc1)C(=O)NCC(c1ccco1)S(=O)(=O)c1cccs1 (configuration not stated)
-22%	O=C(COc1ccc(/C=N/NC(=O)c2ccncc2)cc1)Nc1ccc([N+](=O)[O-])cc1
-17%	Cc1ccccc1Nc1c(-c2ccc(Br)o2)nc2ccc(Cl)cn12
13%	O=C(c1cc2ccc3cccnc3c2[nH]1)N1CCN(c2ccccc2)CC1
-10%	CC1(C)SCC(C(=O)O)NC1=O (configuration not stated)
-8%	CC(=O)Nc1ccc(NC(=O)/C=C/c2ccc(Cl)cc2)cc1
-6%	COc1ccccc1N1CCN(CC(=O)Nc2cc(F)ccc2C)CC1
-18%	Cc1csc2nc(COc3ccc(NC(=O)COc4ccccc4F)cc3)cc(=O)n12
?	Cc1c2oc3c(C)ccc(C(=O)N[C@@H]4C(=O)N[C@@H](C(C)C)C(=O)N5CCC[C@@H]5C(=O)N(C)CC(=O)N(C)[C@@H](C(C)C)C(=O)O[C@H]4C)c3nc-2c(C(=O)N[C@@H]2C(=O)N[C@@H](C(C)C)C(=O)N3CCC[C@@H]3C(=O)N(C)CC(=O)N(C)[C@@H](C(C)C)C(=O)O[C@H]2C)c(N)c1=O
-7%	CCOC(=O)c1c(C)nc2c(c1-c1cc(OC)ccc1OC)C(=O)CC(C)(C)C2
-5%	Cc1ccc(NC(=O)CSCC(=O)Nc2ccccc2N2CCCC2)cc1

Copied from the list.
VDR inh with Cc1csc2nc(COc3ccc(NC(=O)COc4ccccc4F)cc3)cc(=O)n12 = -18%
VDR inh with Cc1c(C#N)c2ncnc(N)c2n1-c1ccccc1 = 7%

Only part of the results is shown, so the mix of outcomes need not match the whole.
